Screening results as filed in PubChem BioAssay.
NOD1 NF-kB reporter – inhibition of NOD1-driven NF-kB reporter – cell-based, luminescence, uHTS, primary screen (AID 1578); NOD1-driven NF-kB luciferase reporter cells, luminescence; higher % means a stronger effect; 1% of 290,000 active; inhibition, % at 4 µM; hits with a dose series show EC50 in µM; in the data active = inhibition mostly above about 36%, no sharp cut-off; inactive = mostly below about 34%;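 also: HEK-293T reporter cells stimulated with the NOD1 agonist gamma-tri-DAP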
Myeloid diff 2 – myeloid differentiation induction; 1% of 360,000 active; calls only at 10 µM; ER-HoxA9 myeloid progenitors, lysozyme-GFP differentiation, flow cytometry; AID 624256;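 active = normalized GFP-positive differentiation at or above the plate's own cutoff, the solvent-only control mean plus 3 SD; inconclusive = no clear call, values can overlap the other calls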;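 also: cells exposed to compound for four days before flow analysis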
GPR55 antagonists – GPR55 antagonists blocking LPI-driven arrestin recruitment, primary screen, imaging, U2OS, beta-arrestin-GFP, LPI agonist (AID 2013); U2OS GPR55 beta-arrestin-GFP translocation imaging, LPI antagonism; higher % means a stronger effect; one-dose inhibition, % at 10 µM; IC50 in µM for titrated hits; 0.13% of 290,000 active;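 active = spots per cell inhibited over 60%, with over 100 cells counted and total cytoplasm intensity under 500,000; inconclusive = wells with under 100 cells, flagged as likely toxic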;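 also: U2OS cells stably carrying GPR55 and arrestin-GFP stimulated by 5 µM LPI near EC80; imaged beta-arrestin-GFP aggregate spots per cell after agonist stimulation; plate controls were LPI-stimulated DMSO wells for no effect and DMSO wells without LPI for full effect; some results filed as inactive read as strong as hits; confirmed hits need IC50 under 10 µM and bright autofluorescent wells are also inconclusive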
HEK293 NOD2/NF-kB – inhibition of NOD2-driven NF-kB reporter – cell-based, luminescence, uHTS, HEK293 (AID 1566); HEK293 NOD2/NF-kB luciferase reporter, luminescence; higher % means a stronger effect; inhibition, % at 4 µM; hits with a dose series show EC50 in µM; 0.63% of 290,000 active; in the data active = inhibition above about 50%; also: many of its hits are not listed in these tables
GPR55 activation – selective activators of receptor GPR55 – imaging, U2OS cells, beta-arrestin-GFP redistribution, primary screen (AID 1961). U2OS GPR55 beta-arrestin-GFP redistribution imaging; higher % means a stronger effect. activation, % at 10 µM; hits with a dose series show EC50 in µM. 0.048% of 290,000 active;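 active = activation above 40% with more than 50 cells counted in the well; inconclusive = wells holding fewer than 50 cells, flagged as toxic or sparse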;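 also: U2OS osteosarcoma cells stably expressing GPR55 and beta-arrestin-GFP; plate controls were DMSO negative control for no effect and LPI positive control for full effect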
T cell modulator – T cell immune modulation candidate. 2C CD8+ T cell-vesicle binding, flow cytometry; hits give low values. calls only at 7 µM. 0.068% of 330,000 active;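 active = response, share of CD8 T cells binding vesicles, and their 90th percentile fluorescence all below set limits, cut at about 80% in these data, passing the limit was not always enough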
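Incubation: binding step 1.5 h, 37 °C, antibody labelling 20 min, ice; system: murine 2C transgenic CD8+ T lymphocytes; technique: cytometric PE anti-B7-1 and Alexa647 anti-CD8 signals after 1% paraformaldehyde fixation; also added: QL9-charged Drosophila Ld/ICAM-1/B7-1 vesicles; control set: naked versus QL9-loaded vesicles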
T cell modulator vesicle-bound % – second read-out of T cell modulator, no call of its own (marks repeat the call); double positive events, %; measured here: CD8+ vesicle-bound cell fraction;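 binding gate set so that unloaded-vesicle control wells show 10% double positive cells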
Myeloid diff 2 GFP+ MAC1+ % – further read-out of Myeloid diff 2, marked with its call; GFP+ MAC1+ double positive, %; measured here: differentiation confirmed by MAC1 staining
Numbers without * were called inactive; i = inactive; ? = inconclusive; nt = no result given; & = joins results of further samples. Not all compounds are listed (hit frequency here may not be typical).

Keys – A = NOD1 NF-kB reporter; B = Myeloid diff 2; C = Myeloid diff 2 GFP+ MAC1+ %; D = GPR55 antagonists; E = HEK293 NOD2/NF-kB; F = GPR55 activation; G = T cell modulator; H = T cell modulator vesicle-bound %
Molecule: Cc1[nH]c(=O)c(C#N)cc1-c1ccncc1
  A: -49%	B: i	C: 4.2	D: -26%	E: 0%	F: 0.2%	G: i	H: 47
Molecule: O=c1cc(-c2ccccc2)oc2cc(O)c(O)c(O)c12
  A: nt	B: i	C: 2.5	D: nt	E: nt	F: nt	G: i	H: 12
Molecule: O=C(N/N=C/c1ccccn1)c1ccc(Cl)cc1
  A: nt	B: ?	C: nt	D: 10%	E: nt	F: 0.2%	G: i	H: 54
Molecule: COC(=O)[C@@H]1[C@H]2C[C@H]3c4[nH]c5ccccc5c4CCN3C[C@@H]2CC[C@@H]1O
  A: -16%	B: i	C: 1.8	D: -2%	E: 8%	F: -0.1%	G: i	H: 24&22
Molecule: CC1CN(c2ncnc3c2c(-c2ccccc2)cn3-c2ccc(F)cc2)CC(C)O1 (centres undefined)
  A: 3%	B: i	C: 0.5	D: 28%	E: 6%	F: 0.6%	G: i	H: 33
Molecule: COC1=CC(=O)C[C@@H](C)[C@]12Oc1c(Cl)c(OC)cc(OC)c1C2=O
  A: 12%	B: i	C: 1.7	D: -18%	E: -1%	F: -0.1%	G: i	H: 36
Molecule: O=c1[nH]cnc2c1ncn2[C@H]1CC[C@@H](CO)O1
  A: -1%	B: i	C: 2.2	D: 13%	E: 30%	F: 0.2%	G: i	H: 21
Molecule: CC(CN1c2ccccc2Sc2ccccc21)N(C)C (centres undefined)
  A: -16%	B: i	C: 2.5	D: 7%	E: 7%	F: 0.5%	G: i	H: 20
Molecule: CN1C2CCC1CC(OC(=O)C(CO)c1ccccc1)C2 (centres undefined)
  A: nt	B: i	C: 2.0	D: nt	E: nt	F: nt	G: i	H: 67
Molecule: O=C1NCN(c2ccccc2)C12CCN(CCCC(c1ccc(F)cc1)c1ccc(F)cc1)CC2
  A: -34%	B: i	C: 4.5	D: 28%	E: 8%	F: -0.3%	G: i	H: 52
Molecule: Cn1c(=O)c2c(ncn2C)n(C)c1=O
  A: -7%	B: i	C: 1.3	D: -2%	E: -5%	F: 0.4%	G: i	H: 24
Molecule: CN1C2CC(OC(=O)C(CO)c3ccccc3)CC1C1OC12 (centres undefined)
  A: -14%&4%	B: i	C: 0.9&2.2&0.4	D: -7%&-3%	E: 8%&-28%	F: -0.1%&-0.1%	G: i	H: 22&20
Molecule: CC[N+](C)(C)Cc1ccccc1Br
  A: -16%	B: i	C: 4.0	D: 2%	E: 16%	F: 0.5%	G: i	H: 13
Molecule: Cc1ccc(S(=O)(=O)NC(=O)NN2CCCCCC2)cc1
  A: -32%	B: i	C: 3.2	D: 4%	E: -6%	F: 0.2%	G: i	H: 16
Molecule: CCn1cc(C(=O)O)c(=O)c2cc(F)c(N3CCNCC3)cc21
  A: -28%	B: i	C: 1.8	D: 6%	E: 2%	F: -0.2%	G: i	H: 20

Additional structures follow.
SMILES | NOD1 NF-kB reporter | Myeloid diff 2 | Myeloid diff 2 GFP+ MAC1+ % | GPR55 antagonists | HEK293 NOD2/NF-kB | GPR55 activation | T cell modulator | T cell modulator vesicle-bound %
CCCC(=O)Nc1ccc(OCC(O)CNC(C)C)c(C(C)=O)c1 (centres undefined) | -31% | i | 4.5 | 1% | 11% | 0.1% | i | 27
CN=C(NC#N)NCCSCc1nc[nH]c1C | -16% | i | 2.4 | 2% | 15% | 0.4% | i | 63
COc1ccc([C@@H]2Sc3ccccc3N(CCN(C)C)C(=O)[C@@H]2OC(C)=O)cc1 | -1% | i | 2.1 | 17% | 23% | -0.1% | i | 20
CCCCNc1cc(C(=O)O)cc(S(N)(=O)=O)c1Oc1ccccc1 | -20% | i | 4.4 | 4% | 4% | -0.2% | i | 20
Clc1ccc2c(c1)CCc1cccnc1C2=C1CCNCC1 | -1%&-31% | nt | nt | -4%&14% | 12%&9% | -0.1%&-0.1% | i | 22
Cc1ncc([N+](=O)[O-])n1CCO | 21%&-10% | i | 2.9 | 9%&12% | 6%&2% | -0.1%&-0.5% | i | 26
CCCCCC(O)C=CC1C(O)CC(O)C1CC=CCCCC(=O)O (centres undefined) | nt | i | 0.8 | nt | nt | nt | nt | nt
CN=C(C[N+](=O)[O-])NCCSCc1ccc(CN(C)C)o1 | nt | i | 2.6 | nt | nt | nt | i | 9
CC(C)(C(=O)O)c1ccc(C(O)CCCN2CCC(C(O)(c3ccccc3)c3ccccc3)CC2)cc1 (centres undefined) | -9% | i | 2.3 | -5% | 3% | -0.1% | i | 14
Cc1cccc(CN2CCN(C(c3ccccc3)c3ccc(Cl)cc3)CC2)c1 (centres undefined) | -10% | i | 3.2 | 26% | 6% | 0.4% | i | 18
O=C(O)CCc1nc(-c2ccccc2)c(-c2ccccc2)o1 | -6% | nt | nt | -3% | 13% | -0.1% | i | 39

Among those listed so far, these contain sulfur.
SMILES | NOD1 NF-kB reporter | Myeloid diff 2 | Myeloid diff 2 GFP+ MAC1+ % | GPR55 antagonists | HEK293 NOD2/NF-kB | GPR55 activation | T cell modulator | T cell modulator vesicle-bound %
CC(CN1c2ccccc2Sc2ccccc21)N(C)C (centres undefined) | -16% | i | 2.5 | 7% | 7% | 0.5% | i | 20
Cc1ccc(S(=O)(=O)NC(=O)NN2CCCCCC2)cc1 | -32% | i | 3.2 | 4% | -6% | 0.2% | i | 16
CN=C(NC#N)NCCSCc1nc[nH]c1C | -16% | i | 2.4 | 2% | 15% | 0.4% | i | 63
COc1ccc([C@@H]2Sc3ccccc3N(CCN(C)C)C(=O)[C@@H]2OC(C)=O)cc1 | -1% | i | 2.1 | 17% | 23% | -0.1% | i | 20
CCCCNc1cc(C(=O)O)cc(S(N)(=O)=O)c1Oc1ccccc1 | -20% | i | 4.4 | 4% | 4% | -0.2% | i | 20
CN=C(C[N+](=O)[O-])NCCSCc1ccc(CN(C)C)o1 | nt | i | 2.6 | nt | nt | nt | i | 9
